Screens from PubChem.
Tg IFNy HTS – inhibitors of Toxoplasma gondii growth with IFN-gamma | Toxoplasma gondii growth in IFN-gamma-treated host cells; hits give low values; reference of the scale not given here | activity change, negative = inhibition, %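 (about 20 µM by stock and volumes)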 | 69,000 tested, 3.8% active;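 active = below -70%; inconclusive = fit judged invalid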;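 also: host cells are HeLa cells infected with Toxoplasma gondii; parasite growth read as luciferase light; one replicate is shown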
Starred values were filed as active, the others as inactive; & = joins results of further samples. The list is partial. The share of hits here may be higher or lower than overall.

CO[C@H]1CC(O[C@@H]2/C(C)=C/C[C@@H]3C[C@@H](C[C@]4(C=C[C@H](C)[C@@H](C5CCCCC5)O4)O3)OC(=O)[C@@H]3C=C(C)[C@@H](O)[C@H]4OC/C(=C\C=C\[C@@H]2C)[C@]43O)O[C@@H](C)C1O[C@H]1C[C@H](OC)[C@@H](O)[C@H](C)O1 (stereo not given in full) was read as Tg IFNy HTS -73*.
CC(C)CCNC(=O)C1(C)CCC(=O)N1CCc1c[nH]c2ccccc12 (stereo not given) was read as Tg IFNy HTS inconclusive.
`COc1ccc(-c2cnc(N)cn2)cc1C` gave Tg IFNy HTS 45.
For C#C[C@]1(O)CC[C@H]2[C@@H]3CCc4cc(OC5CCCC5)ccc4[C@H]3CC[C@@]21C the results were Tg IFNy HTS -36.
For C[C@H](CO)N1C[C@H](C)[C@@H](CN(C)S(=O)(=O)c2cn(C)cn2)OCc2cnnn2CCCC1=O the results were Tg IFNy HTS 81.
Cc1ccc(F)c(CN2C[C@@H](C(=O)O)C[C@@H](C(=O)NC3CC3)C2)c1Cl was read as Tg IFNy HTS 9.
Screening Cc1ccc(-c2nc(C)c(CCNC(=O)C(=O)Nc3ccc(Cl)cc3)s2)cc1 returned Tg IFNy HTS 83.
`COCCO[C@H]1[C@H](NC(=O)C(C)C)c2ccccc2C12CCN(C(=O)C1=CCCCC1)CC2` gave Tg IFNy HTS -46.
For CN(C)CC(=O)N1CC2(C1)[C@@H](c1ccccc1)[C@@H](CO)N2Cc1cc(F)ccc1F the results were Tg IFNy HTS 5.
For Cc1cc2nc(C(=O)N[C@H]3C[C@H]4C(=O)N(C)CC(=O)N4C3)cc(C)n2n1 the results were Tg IFNy HTS 0.
`O=C(O)c1ccc2nc(-c3ccccn3)[nH]c2c1` gave Tg IFNy HTS 270.
CCOC(=O)c1c(-c2cccs2)csc1NC(=O)c1ccccc1 was read as Tg IFNy HTS -4.
Screening COCCN1C(=O)CCc2cc(NS(=O)(=O)c3ccc(Cl)s3)ccc21 returned Tg IFNy HTS 21.
COc1ccccc1-c1cccc(C(=O)N(C)Cc2snnc2C)c1 was read as Tg IFNy HTS 43.
Screening Cc1ccc(S(=O)(=O)NCCc2csc(-c3cccc(F)c3)n2)c(C)c1 returned Tg IFNy HTS 63.
Screening CCOc1ccc2nc(N/C(N)=N/S(C)(=O)=O)nc(C)c2c1 returned Tg IFNy HTS 36.
O=C(c1cccc2nccnc12)N1CC(c2ccncc2)C1 was read as Tg IFNy HTS -4.
CC(C)[C@H]1CC=CC[C@@H](C)Oc2ccccc2C(=O)N(C)[C@H](C(C)C)C(=O)N1 (mixture of isomers) was read as Tg IFNy HTS 0.
Screening Cc1ccc(C)c(OCC(=O)NCCNC(=O)c2cccnc2)c1C returned Tg IFNy HTS 0.
`CC(=O)N1CCC(C(=O)NCc2ccccc2)(N(Cc2ccc(C)cc2)C(=O)c2ccc(C)cc2)CC1` gave Tg IFNy HTS 39.
For CC(=O)NCCC1CCCCN1C(=O)Nc1ccc(F)c(C(F)(F)F)c1 (stereo not given) the results were Tg IFNy HTS -10.
`Cc1nc(-c2ccc(Cl)cc2)sc1CCNC(=O)c1cccs1` gave Tg IFNy HTS -55.
`O=c1cc(-c2ccc(O)cc2)oc2ccc(O)cc12` gave Tg IFNy HTS -87*.
Screening O=C(C[C@H]1CC[C@H]2NC[C@@H](O)COC[C@@H]2O1)NC1Cc2ccccc2C1 returned Tg IFNy HTS 6.
Screening N#C[C@@H]1[C@H](c2ccccc2C2=CCCC2)[C@@H](CO)N1C(=O)c1cccc(F)c1 returned Tg IFNy HTS 13.
For CC(C)(C)NC(=O)Cn1c(=O)ccc2cc(S(=O)(=O)N3CCCC3)ccc21 the results were Tg IFNy HTS 37.
Cc1ccc(-c2cccc(-n3cnnc3)c2)c2cccnc12 was read as Tg IFNy HTS -19.
For COc1ccc(CN(Cc2cc3c(cc2C)n(C)c(=O)n3C)C2CCN(C)CC2)cc1 the results were Tg IFNy HTS 13.
O=C(CN1CCOc2ccccc2C1)N1CCc2[nH]ncc2C1 was read as Tg IFNy HTS -43.
`COc1cccc(CN2C[C@@H]3CCN(C(=O)NC4CCCC4)CC[C@H]3S2(=O)=O)c1` gave Tg IFNy HTS 0.
For CN(C)C(=O)N1CCn2cc(CNC(=O)C3CCC3)nc2C1 the results were Tg IFNy HTS -7.
CC(C)c1nc2ccccc2c2nn(Cc3cc4c(cc3Cl)OCO4)c(=O)n12 was read as Tg IFNy HTS 42.
Cc1noc(C)c1CC(=O)N1CCCC2(C1)Nc1cccnc1NC2=NCc1ccccc1 (stereo not given) was read as Tg IFNy HTS 190.
For Cc1oc(C2CCN(C(=O)c3cc4ccccc4[nH]3)CC2)nc1C(=O)N1CCSCC1 the results were Tg IFNy HTS -48.
Screening CC(=O)O[C@@H]1CC2C(C)(C)C(=O)C=C[C@]2(C)C2CC[C@@]3(C)[C@H](c4ccoc4)OC(=O)[C@H]4O[C@]43[C@@]21C (stereo not given in full) returned Tg IFNy HTS 16.
`C[C@@H]1CN([C@@H](C)CO)C(=O)c2ccccc2-c2ccccc2CO[C@H]1CN(C)C(=O)Nc1cccc(C(F)(F)F)c1` gave Tg IFNy HTS -45.
COCCCNc1nc2c([nH]1)c(=O)[nH]c(=O)n2C was read as Tg IFNy HTS 3.
CC(C)N1CCO[C@H]2CN(S(=O)(=O)Cc3ccccc3)CC[C@@H]2C1 was read as Tg IFNy HTS -4.
`CCn1ncc(S(=O)(=O)N2CCOC(C)(C(N)=O)C2)c1C` (stereo not given) gave Tg IFNy HTS -1.
Screening Cc1cc(C)c(C(=O)N2CCCC(c3nc4c(C)cccc4[nH]3)C2)c(=O)[nH]1 (stereo not given) returned Tg IFNy HTS 0.

Sorted by SMILES length (lowest first): part of the list above
For CN(C)C(=O)N1CCn2cc(CNC(=O)C3CCC3)nc2C1 the results were Tg IFNy HTS -7.
Screening CCOc1ccc2nc(N/C(N)=N/S(C)(=O)=O)nc(C)c2c1 returned Tg IFNy HTS 36.
Screening COCCN1C(=O)CCc2cc(NS(=O)(=O)c3ccc(Cl)s3)ccc21 returned Tg IFNy HTS 21.
Cc1noc(C)c1CC(=O)N1CCCC2(C1)Nc1cccnc1NC2=NCc1ccccc1 (stereo not given) was read as Tg IFNy HTS 190.
For Cc1oc(C2CCN(C(=O)c3cc4ccccc4[nH]3)CC2)nc1C(=O)N1CCSCC1 the results were Tg IFNy HTS -48.

Additional results follow:
For Cc1ccc(C(=O)N2CCC3(CC2)COC(COc2cccnc2)C3)o1 (stereo not given) the results were Tg IFNy HTS 0.
For c1ccc(C(c2ccccc2)c2n[nH]c3c2CN(CC2CCCO2)CC3)cc1 (stereo not given) the results were Tg IFNy HTS 4.
For CCC1(c2ccccc2)OC(c2cc(Cl)cc(Cl)c2O)Nc2ccccc21 (stereo not given) the results were Tg IFNy HTS -16.
For CCS(=O)(=O)N1CCN(c2nc(N(C)C)nc3c2CCNC3)CC1 the results were Tg IFNy HTS -14.
`CC(Cc1ccco1)NC(=O)c1nc(Nc2ccc(F)cc2)c2ccccc2n1` (stereo not given) gave Tg IFNy HTS -64.
For CC(C)(C)S(=O)N1Cc2cc(C(=O)NCc3ccc4c(c3)OCO4)nc(-c3cccc(-c4cc5ccccc5o4)c3)c2[C@H]1CCO (stereo not given in full) the results were Tg IFNy HTS -58.
For O=C(O)c1c(Sc2ccccc2)c2cc(Cl)ccc2n1Cc1ccc(Cl)cc1 the results were Tg IFNy HTS 11&9.
Screening O=c1[nH]c(-c2ccccc2)nnc1/C=C/c1ccccc1 returned Tg IFNy HTS -85*.
For Cc1c(CN(C)c2ccnc(C(=O)NCc3ccco3)c2)cnn1C the results were Tg IFNy HTS 264.
Screening Cc1ccc(-c2nc(CCNC(=O)c3c(F)cccc3F)cs2)cc1 returned Tg IFNy HTS 432.

Reprinted at random: 6 entries already listed, in no set order.
For c1ccc(C(c2ccccc2)c2n[nH]c3c2CN(CC2CCCO2)CC3)cc1 (stereo not given) the results were Tg IFNy HTS 4.
CC(C)CCNC(=O)C1(C)CCC(=O)N1CCc1c[nH]c2ccccc12 (stereo not given) was read as Tg IFNy HTS inconclusive.
Screening Cc1ccc(-c2nc(C)c(CCNC(=O)C(=O)Nc3ccc(Cl)cc3)s2)cc1 returned Tg IFNy HTS 83.
For Cc1c(CN(C)c2ccnc(C(=O)NCc3ccco3)c2)cnn1C the results were Tg IFNy HTS 264.
For O=C(O)c1c(Sc2ccccc2)c2cc(Cl)ccc2n1Cc1ccc(Cl)cc1 the results were Tg IFNy HTS 11&9.
CCOC(=O)c1c(-c2cccs2)csc1NC(=O)c1ccccc1 was read as Tg IFNy HTS -4.

Continuation.
Screening Cc1oc(-c2ccc(C(=O)NC3CCCCC3)cc2)nc1CN1CCN(c2ccccc2)CC1 returned Tg IFNy HTS -34.
`Cc1nc([C@H]2C[C@H]3CCN(C(=O)c4cnccn4)C[C@@H]3O2)sc1C` gave Tg IFNy HTS 165.
For CN(CC(=O)NC(Cc1ccsc1)c1cccnc1)Cc1cccnc1 (stereo not given) the results were Tg IFNy HTS -12.
`Cc1cccc(CN2CCc3onc(CO)c3C2)n1` gave Tg IFNy HTS 3.
For COc1ccc(CN2C3(CCN(Cc4ccncc4)C3)c3ccccc3S2(=O)=O)cc1 (stereo not given) the results were Tg IFNy HTS -36.
For CCCNC(=O)c1cc2nc(-c3ccccc3)cc(C(F)(F)F)n2n1 the results were Tg IFNy HTS -39.
Screening Cc1cc(C2=CSC3=NCCN23)ccc1Cl returned Tg IFNy HTS -25.
COc1cc(N2CCC3(CC2)CNC(=O)O3)ncn1 was read as Tg IFNy HTS -2.
Screening CO[C@H](CN(C)Cc1ccc2c(c1)OCO2)[C@@H](C)CN(C(=O)c1ccccc1)[C@@H](C)CO returned Tg IFNy HTS -48.
For COc1cccc(CNC(=O)c2nc(Nc3ccc(F)cc3)c3ccccc3n2)c1 the results were Tg IFNy HTS 22.
COc1cc(NC(=O)CN2CCC(n3ccnc3)C2)ccc1Cl (stereo not given) was read as Tg IFNy HTS 3.
Screening CN(Cc1cnc(-c2ccccn2)nc1)Cc1cnn(-c2ccccc2)c1 returned Tg IFNy HTS 4.
For O=C(Cc1ccc(O)cc1)N1C[C@@H]2C3CCC(CC3)[C@@H]2C1 the results were Tg IFNy HTS 22.
`O=C(c1cccs1)N1CCCn2c(nc(Cn3ccnc3)cc2=O)C1` gave Tg IFNy HTS 5.
Clc1ccc(-c2nc(N3CCN(C4CCCCC4)CC3)c3ccccc3n2)cc1 was read as Tg IFNy HTS 14.
`Cc1ccc(N(Cc2nc(-c3ccccc3)oc2C)S(=O)(=O)c2cccs2)cc1` gave Tg IFNy HTS -63.
`CCC(=O)N(Cc1ccc(C)cc1)Cc1cc2cccc(C)c2n2nnnc12` gave Tg IFNy HTS 34.
`CN1CCN(Cc2ccc(C#CC(C)(C)O)cc2)CC1C(=O)O` (stereo not given) gave Tg IFNy HTS -30.
Screening Cc1cc(C)c(CSCCNC(=O)NC(C)(C)C)c(C)c1 returned Tg IFNy HTS 11.
Screening C[C@H](CO)N1C[C@H](C)[C@@H](CN(C)C(=O)NC2CCCCC2)OCc2ccccc2-c2c(n(C)c3ccccc23)C1=O returned Tg IFNy HTS -46.
O=c1c2ccccc2n(Cc2ccc(F)cc2)c2ccccc12 was read as Tg IFNy HTS -81*.
Screening CC(NCc1nc(Cc2ccccc2F)no1)c1cn2ccsc2n1 (stereo not given) returned Tg IFNy HTS -2.
For O=C(c1cc2cccnc2n(Cc2ccc(F)cc2)c1=O)N1CCN(Cc2ccccc2)CC1 the results were Tg IFNy HTS -30.
CS(=O)(=O)CCNCc1nc(-c2ccc3ncnc(Nc4ccc(OCc5cccc(F)c5)c(Cl)c4)c3c2)cs1 was read as Tg IFNy HTS -29&-62.
For O=C(Nc1ccc(N2CCOCC2)c(F)c1)c1cc(-c2ccc3c(c2)OCO3)n[nH]1 the results were Tg IFNy HTS -60.
Screening C[C@@H]1CCCCO[C@H](CN(C)S(=O)(=O)c2cn(C)cn2)[C@@H](C)CN([C@H](C)CO)C(=O)c2cc(N(C)C)ccc2O1 returned Tg IFNy HTS 114.
For COc1cc(N2CCN(C)CC2)ccc1Nc1nccc(-c2cn(C)c3cnccc23)n1 the results were Tg IFNy HTS inconclusive.
CCCN1CCCn2c(nc(CNC(=O)c3cnoc3C)cc2=O)C1 was read as Tg IFNy HTS 8.
Screening O=C(Nc1cc(F)ccc1F)N[C@@H]1CC[C@H](CCn2cc(C3CCCCC3)nn2)O[C@H]1CO returned Tg IFNy HTS -39.
`CO[C@H](CN(C)S(=O)(=O)c1ccc(F)cc1)[C@@H](C)CN(Cc1ccccc1Cl)[C@@H](C)CO` gave Tg IFNy HTS 71.
CSc1ncc2c(n1)CC(C)(C)C/C2=N\OC(=O)c1cccc(C(F)(F)F)c1 was read as Tg IFNy HTS -20.
For COc1ccc(CCn2c(C)c3c(=O)n(-c4nc5ccccc5s4)[nH]c3cc2=O)cc1 the results were Tg IFNy HTS -17.
`CC1(C)C2CCC1(CS(=O)(=O)O)C(=O)/C2=C\c1ccc(/C=C2/C(=O)C3(CS(=O)(=O)O)CCC2C3(C)C)cc1` gave Tg IFNy HTS -68.
For CCN1C(=O)CCc2cc(NS(=O)(=O)c3ccc(Cl)c(Cl)c3)ccc21 the results were Tg IFNy HTS -100*.
Screening CSc1nnc(CCNC(=O)NC2CCCCC2)n1C returned Tg IFNy HTS 31.
For O=C(NCc1ccccc1)[C@@H]1[C@@H](CO)[C@@H]2Cn3c(cccc3=O)[C@H]1N2C(=O)Cc1ccccn1 the results were Tg IFNy HTS -2.
For C=CCOCC12CCCOC1CCN(S(=O)(=O)C1CC1)C2 (stereo not given) the results were Tg IFNy HTS 49.
CC(C)NC(=O)[C@H]1C[C@H]2CCN(CCOCc3ccccc3)C[C@@H]2O1 was read as Tg IFNy HTS -19.
Screening CC(C)N1CCn2nc(C(=O)NCc3nnc(-c4ccccc4)o3)cc2C1 returned Tg IFNy HTS 0.
Screening CCc1ccccc1NC(=O)C1=C(C)C(=O)OC12CCN(CC)CC2 returned Tg IFNy HTS 4.
